Screens from PubChem.
D2 PAM: Beta-Arrestin HTS for Positive Allosteric Modulators of the Human D2 Dopamine Receptor: Potentiators; potentiation, % (test concentration not listed); DiscoveRx D2 beta-arrestin cells, luminescence, 90 min; 100% = 57 uM dopamine signal; hit rate 0.23% among 360,000; D(2) dopamine receptor (Homo sapiens), P14416; AID 624464, 2012; active = potentiation of 50% or more; inconclusive = 30% to 50%; inactive = 30% or less;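 note: compound concentration not given in the record; tested on top of an EC20 dose of dopamine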
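PathHunter D2 cells, attached overnight at 37 deg C, received compound in DMSO plus dopamine at EC20 (50 nM final) for 90 min at 37 deg C. Beta-arrestin recruitment was read as luminescence after 1 h with detection reagent at ambient temperature.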
D2 agonist: Beta-Arrestin HTS for Positive Allosteric Modulators of the Human D2 Dopamine Receptor: Agonists; D(2) dopamine receptor (Homo sapiens), P14416; DiscoveRx PathHunter D2 beta-arrestin, luminescence, 90 min; 100% = 57 uM dopamine signal; activation, % (concentration not given with the values); hit rate 0.084% among 360,000; AID 624465, 2012; in the data active = activation above about 40%; inconclusive = about 15% to 40%; inactive = below about 15%; note: compound concentration not given in the record; the text of the record calls up to 30% inactive
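DiscoveRx PathHunter D2 beta-arrestin cells (2,100/well) attached overnight, then compound-stimulated 90 min at 37 C in HBSS/10 mM HEPES/0.1% Tween-20 buffer; beta-galactosidase complementation read by luminescence after 1 h at ambient temperature. Dopamine 57 uM final (EC100) as control.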
Sfp inh: qHTS Assay for Inhibitors of Bacillus subtilis Sfp phosphopantetheinyl transferase (PPTase); 4'-phosphopantetheinyl transferase ffp (Bacillus subtilis), Q9F4F7; Potency, µM, without a hit: max response, negative = inhibition, actives largely listed as inhibitors; Biochemical Sfp PPTase activity, qHTS; hit rate 3.5% among 310,000; active = well fitted inhibition curve with a large enough effect; inconclusive = small, poorly fitted or top-dose-only effect, or another doubt; inactive = no such curve, though single readings can be large or run the other way;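 note: the enzyme is Sfp with the accession as filed and its product quenches rhodamine fluorescence; potency is the fitted concentration of half-maximal effect; 0% = enzyme reaction without inhibitor and -100% = no enzyme wells; top concentration of the series not given in the record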
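Step 1, compound plus 15 nM Sfp-PPTase, 15 min, room temperature. Step 2, add rhodamine-CoA (5 uM) and BHQ-2-YbbR (12.5 uM). Step 3, read 525/598 nm fluorescence at 0 and 30 min.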
CtBP-E1A blk: qHTS Assay for Inhibitors of the CtBP/E1A Interaction; activity change, % (concentration not given with the values); CtBP / adenovirus E1A interaction (AlphaScreen); AID 651724, 2012; hit rate 0.49% among 340,000; AlphaScreen GST-E1A/His-CtBP binding, 1536-well; hits give low values; control for the full effect not named in the record; in the data active means activity change below about -65%; inconclusive means about -30% to -65%; inactive means above about -30%; note: % is set by controls: 0 for no effect and ±100 for the full control effect
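Homogeneous bead-based format: GST-tagged E1A captured on glutathione donor beads, His-tagged CtBP on nickel acceptor beads; compounds precede bead addition by 2 h at 37 °C.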
Six1-Eya2 inh: qHTS Assay for Inhibitors of the Six1/Eya2 Interaction; Homeobox protein SIX1 (Homo sapiens) + Protein phosphatase EYA2 (Homo sapiens), …; AlphaScreen GST-Six1/His-Eya2 binding, biochemical; hits give low values; control for the full effect not named in the record; activity change, % (no concentration beside the values); hit rate 0.56% among 360,000; in the data active = activity change below about -65%; inconclusive = about -30% to -65%; inactive = above about -30%; note: % is set by controls: 0 for no effect and ±100 for the full control effect; compound concentration not given in the record
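AlphaScreen with GST-Six1 and His-Eya2 (5X mix: 250 nM and 500 nM), glutathione donor and nickel acceptor beads; buffer 50 mM Tris pH 8.0, 300 mM NaCl, 1 mM TCEP; 1 h at 37 C in the dark.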
PINK1 expr mod: A Quantitative High throughput Screen to Identify Chemical Modulators of PINK1 Expression | PINK1 immunofluorescence, high-content cytometry, 24 h | Potency, µM (series often up to 76.6 µM), for the others: at the top dose activation (PINK1 increase), actives largely listed as activators | hit rate 0.2% among 410,000 | AID 624263, 2012; active = well fitted activation curve with a large enough effect; inconclusive = small, poorly fitted or top-dose-only effect; inactive = flat fitted curve, though single readings scatter; cell line not stated here;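 note: potency is the fitted concentration of half-maximal effect; % of control where 0% means no effect; nearly all actives have a fitted effect of over 65% in size; a mitochondrial uncoupler was the plate control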
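Compound titrations (5 concentrations, 24 h) on a stable cell line; DMSO and CCCP controls. Endpoint: fixed-cell PINK1 immunofluorescence with mitochondrial, cell and nuclear markers, scanned by microplate cytometer.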
TRPV1 PAM: HTS Assay for Compounds that Act as Potentiators of the Vanilloid Receptor 1 | TRPV1-expressing cells, Fluo-8 calcium influx, capsaicin EC20 potentiation; host cell line not named in the record; control for the full effect not named in the record | potentiation, % at 8.33 µM | hit rate 0.02% among 320,000 | AID 540277, 2011; active means potentiation above 80%; inconclusive means 30% to 80%; inactive means below 30%; note: 0% is about no effect
Target sequence (Q8NER1 whole entry, looked up): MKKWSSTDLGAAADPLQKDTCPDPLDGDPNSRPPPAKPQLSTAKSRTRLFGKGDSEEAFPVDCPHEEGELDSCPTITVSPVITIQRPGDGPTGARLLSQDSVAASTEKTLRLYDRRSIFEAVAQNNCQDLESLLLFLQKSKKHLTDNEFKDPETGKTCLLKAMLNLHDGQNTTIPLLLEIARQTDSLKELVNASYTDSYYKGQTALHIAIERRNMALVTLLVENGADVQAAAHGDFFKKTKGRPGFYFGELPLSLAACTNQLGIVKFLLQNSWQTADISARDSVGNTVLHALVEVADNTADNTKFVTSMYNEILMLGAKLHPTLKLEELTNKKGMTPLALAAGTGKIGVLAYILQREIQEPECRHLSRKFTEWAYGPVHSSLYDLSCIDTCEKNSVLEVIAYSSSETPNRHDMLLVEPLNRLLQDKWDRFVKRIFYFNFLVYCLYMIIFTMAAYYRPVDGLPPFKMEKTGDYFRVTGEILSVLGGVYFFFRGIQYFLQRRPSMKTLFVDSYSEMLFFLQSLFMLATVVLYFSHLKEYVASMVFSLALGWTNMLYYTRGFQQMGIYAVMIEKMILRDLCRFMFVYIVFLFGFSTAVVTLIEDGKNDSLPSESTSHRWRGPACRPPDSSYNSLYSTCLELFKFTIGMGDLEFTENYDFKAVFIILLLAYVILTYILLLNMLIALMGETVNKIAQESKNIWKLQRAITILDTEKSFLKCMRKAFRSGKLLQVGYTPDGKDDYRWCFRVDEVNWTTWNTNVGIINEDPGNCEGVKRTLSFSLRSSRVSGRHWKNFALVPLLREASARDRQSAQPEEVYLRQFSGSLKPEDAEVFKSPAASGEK
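TRPV1-expressing cells were cultured overnight at 35.5C and loaded with Fluo-8 calcium dye for 40 to 90 min at room temperature. After a 10 s baseline, compound was added and calcium influx was read kinetically for 3 min (ex 480/em 520 nm).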
* = called active by the depositor; ? = inconclusive; . = no result given; & = joins results of further samples; [ ] = another dose, or the depositor's remark.

#	compound	D2 PAM	D2 agonist	Sfp inh	CtBP-E1A blk	Six1-Eya2 inh	PINK1 expr mod	TRPV1 PAM
1	CCOC(=O)C1CCN(C(=O)c2ccccc2NC(=O)c2ccc(Cl)cc2)CC1	4.6	-2.0	0.2%	4.8	12.2	-0.4%	-1.8
2	CC1CCCCN1C(=O)Cn1nnc(-c2cccnc2)n1 (stereo unspecified)	-3.6	-1.2	-1.1%	2.8	3.3	-0.5%[38.3 µM]	8.0
3	COc1ccc(C(C)=O)cc1Cn1c(C)c(C(=O)NCCC#N)sc1=O	-2.4	4.7	.	5.7	0.4	2.1%	.
4	Cc1cc(C(F)F)n2nc(C(=O)Nc3sc4c(c3C#N)CCC(C)C4)nc2n1 (stereo unspecified)	-12.1	-3.0	4.7%	-4.3	-0.6	-0.9%	6.3
5	C=CCN1C(=O)c2ccc(C(=O)N(CCOC)c3c(N)n(CCCC)c(=O)[nH]c3=O)cc2C1=O	-10.9	-2.6	.	2.9	-2.5	-0.7%	2.1
6	CN(C)S(=O)(=O)c1cccc(NC(=O)CN2C(=O)NC(Cc3ccccc3)C2=O)c1 (stereo unspecified)	-16.5	-3.8	.	.	-2.2	3.1%	0.5
7	O=S(=O)(c1ccc(Br)cc1)N1CCC(c2nc3ccccc3[nH]2)CC1	-4.6	1.4	16.4%	7.5	-5.7	2.0%	-11.0
8	CCN1CCN(C(=O)CCNC(=O)Cn2cnc3ccccc3c2=O)CC1	-3.7	-3.7	-3.5%	2.7	2.0	2.4%	-3.6
9	Cc1cccc(C(=O)OCC(=O)NCc2ccco2)c1	-3.8	0.5	.	-9.2	-0.6	-2.6%	-3.9
10	Cc1cn([C@H]2C[C@H](O)[C@@H](CNC(=O)[C@H]3CCC(=O)N3)O2)c(=O)[nH]c1=O	.	-2.6	.	-20.2	-0.1	1.5%	.
11	CCOC(=O)C1(CCCc2ccccc2)CCN(C(=O)CSC)CC1	0.9	14.6	11.4%	-1.2	-2.9	0.8%	-17.8
12	Cc1onc(-c2ccccc2)c1C(=O)Nc1cccc(C#N)c1	-5.6	1.1	27.1%	5.2	-0.5	0.8%	-22.8
13	O=C(COc1ccccc1)Nc1cccc(-c2nc3ccccc3[nH]2)c1	11.4	0.3	6.7%	-8.8	1.8	-0.4%	18.7
14	COc1cc(C=Cc2nnc3c4ccccc4cnn23)cc(OC)c1OC	-6.1	-5.9	.	-14.6	0.0	-0.4%	.
15	O=C(NNC(=O)c1ccccc1Br)c1ccc(Cl)cc1	-7.9	-2.7	4.9%	13.4	2.2	7.0%[38.3 µM]	-22.4
16	Cc1ccc(C)c(NC(=O)CSc2c(C)n[nH]c2C)c1	-4.1	0.9	10.5%	8.9	-13.9	0.5%	8.9
17	COc1cc(S(=O)(=O)N(Cc2cccnc2)Cc2cccc(OC)c2OC)ccc1-n1cnnn1	-1.0	-4.5	-18.9%	0.1	-4.2	-1.8%	8.5
18	CC(=O)Nc1cccc(NC(=O)CSc2nc(C)c(C)c(C)c2C#N)c1	2.9	-1.1	?	0.6	4.7	-2.1%[38.3 µM]	6.1
19	Nn1cnc2scc(-c3ccco3)c2c1=O	-1.1	-3.2	-25.1%	3.2	-14.3	0.2%	20.1
20	CCCC(=O)Nc1cccc(NC(=O)c2ccccc2Br)c1	-14.7	-1.0	14.5%	1.9	-0.1	-0.3%[38.3 µM]	4.7
21	Cc1onc(-c2ccccc2Cl)c1C(=O)Nc1ccc(S(=O)(=O)NCC2CCCO2)cc1 (stereo unspecified)	5.3	-1.3	11.7%	?	-8.8	0.2%[38.3 µM]	9.4
22	O=C(CCC(=O)OCC(=O)c1cccc([N+](=O)[O-])c1)Nc1ccccc1Cl	-40.7	-12.6	14.3%	-1.0	4.4	0.0%[38.3 µM]	7.2
23	COC(=O)C1=CN(C(C)C)C=C(C(=O)OC)C1c1cc(Br)c(OC)c(OC)c1	-11.5	-0.2	-5.9%	48.8	39.1	6.5%[38.3 µM]	3.2
24	c1cc(-c2nsc(-c3ccncc3)n2)ccn1	-3.4	-2.5	44.7µM*	7.6	-2.6	-0.9%	5.1
25	O=C(CC(O)(c1ccccc1)c1ccccc1)Nc1ccccn1	-15.3	-6.3	.	6.9	0.7	-1.4%	.
26	CCC(C)(C(=O)NC1CCCC1)N(C(=O)CNC(C)=O)c1ccc(C)cc1 (stereo unspecified)	-22.5	-2.1	5.5%	-2.2	9.2	0.4%	-5.1
27	COc1cc(NC(=O)c2cc3c(=O)n(C)c4ccccc4c3n2C)cc(OC)c1OC	-1.0	0.4	6.8%	2.6	-14.3	13.2%	-23.8
28	COc1ccccc1NC(=O)c1ccc(-c2ccc(Br)cc2)o1	-6.6	-3.6	?	12.2	-2.7	12.3%	-12.0
29	COc1cccc(CN2CCC2(C)C(=O)Nc2cnc3ccccc3c2)c1F (stereo unspecified)	3.4	13.4	.	-5.5	-8.1	-1.0%	.
30	CN(CC(=O)N1CC(=O)N(CCc2ccccc2)C(=O)C1)S(=O)(=O)c1cccc2nsnc12	-3.8	-0.3	6.0%	5.0	-0.5	-0.2%[38.3 µM]	-1.6
31	COCCN(CC(=O)Nc1ccccc1C(F)(F)F)C(=O)c1ccc(-n2cccn2)cc1	-1.9	-1.4	.	-4.8	-3.0	-1.3%	2.5
32	O=C(CC1SCCNC1=O)Nc1cccc(C(F)(F)F)c1 (stereo unspecified)	-9.7	-0.7	13.5%	-6.2	3.7	0.1%	-3.8
33	CCC(C)(C)n1nnnc1C(c1cc2cc3c(cc2[nH]c1=O)OCO3)N1CCCCC1 (stereo unspecified)	0.6	1.1	13.4%	19.6	13.6	1.7%	-2.8
34	S=C(NCCc1ccccc1)Nc1cnc2ccccc2c1	-15.7	2.0	5.4%	.	-0.1	0.6%	-4.9
35	CC(C)C(=O)Nc1nnc(S(=O)(=O)N2CCCc3ccccc32)s1	-3.9	-2.1	4.5%	6.8	-2.1	8.7%	-0.4
36	CCOC(=O)Cn1nc(-c2ccccc2)c2ccccc2c1=O	-11.5	-0.9	20.1%	3.8	5.8	-1.8%[38.3 µM]	-12.5
37	Cc1nc(-c2nc(CC(=O)NNC(=O)c3ccc(Cl)cc3)cs2)cs1	-4.7	-2.5	-14.0%	3.3	-9.8	2.3%	4.9
38	O=[N+]([O-])c1ccc(S(=O)(=O)Nc2ccc(-c3ccc(N4CCOCC4)nn3)cc2)cc1	-20.7	0.9	.	9.8	-15.9	1.1%	?
39	COc1cc(CN2C[C@@H](CO)O[C@@H](n3cnc4c(NCCN(C)C)ncnc43)C2)cc(OC)c1OC	2.6	1.3	.	5.5	-1.8	0.1%	.
40	COc1cc(NC(=O)[C@H]2CCCN2S(=O)(=O)c2cccc3cccnc23)cc(OC)c1OC	-6.0	0.5	.	4.9	0.1	-0.9%	5.4
41	CCOc1ccc(NC(=O)CSc2nnc(C)n2CCCOC)cc1	-12.7	-1.2	13.9%	3.0	4.7	20.3%[38.3 µM]	8.5
42	CCC1=C(OC(=O)N(CC)CC)N2C(=O)OC(=NCCOC)[C@]2(Cc2ccccc2)[C@H]2C1=CC[C@H]1C(=O)N(C)C(=O)[C@H]12	-6.8	-1.1	11.9%&-12.5%	5.5	3.9	1.4%	-8.4
43	COc1ccc(CNC(=S)NCc2ccc(F)cc2)cc1	-15.4	-2.6	?	?	-7.2	0.5%	-1.6
44	O=C(NCc1cccc(F)c1)Nc1nnc([C@H]2C[C@H](O)[C@@H](CO)O2)s1	-6.8	-3.3	.	2.6	-1.6	1.1%	.
45	CC(Oc1ccc(Br)cc1)C(=O)Nc1cc(S(=O)(=O)N2CCOCC2)ccc1N1CCCC1 (stereo unspecified)	-8.5	0.0	.	-4.2	-8.4	5.3%	-4.7
46	COc1ccc(OC)c(NC(=O)C2CCN(C(=O)c3cccs3)CC2)c1	-13.2	-5.4	15.5%	-2.3	-8.8	1.8%	-2.1
47	COc1cc(NS(=O)(=O)c2ccc(NC(=S)NC(=O)c3ccc(F)cc3)cc2)nc(OC)n1	2.4	-7.5	3.4%	-5.4	-2.4	-0.1%	18.0
48	COc1cccc(CNS(=O)(=O)c2ccc(S(=O)(=O)N3CCCC3)cc2)c1	-2.3	-0.6	10µM*	-1.7	-0.6	10.0%	12.5
49	CN(Cc1ccccc1)C(=O)CCS(=O)(=O)c1ccc2c(c1)NC(=O)CS2	-11.3	-2.3	15.7%	-15.3	-9.3	0.0%	-16.4
50	Cc1cc(C(F)F)nn1CC(=O)N1CCSCC1	-0.1	-0.8	4.4%	5.2	6.9	2.2%	0.0

The listing continues:
#	compound	D2 PAM	D2 agonist	Sfp inh	CtBP-E1A blk	Six1-Eya2 inh	PINK1 expr mod	TRPV1 PAM
51	CC(Sc1nnc(CNC(=O)c2ccco2)n1C)C(=O)Nc1nccs1 (stereo unspecified)	7.1	1.8	3.4%	0.0	9.0	-0.7%	13.7
52	O=C(Nc1ccc(F)cc1)C(c1ccccc1)N1CCN(CC(=O)N2CCOCC2)CC1 (stereo unspecified)	-1.4	-0.4	.	-22.5	4.0	2.6%	-2.2
53	CC(C)NS(=O)(=O)c1ccc(OCC(=O)N2CCCC2)c(Cl)c1	-3.3	-0.2	11.9%	3.0	2.5	3.6%[38.3 µM]	4.5
54	CC(C)(C)C(=O)OCCNc1nc(-c2ccccc2)nc2ccccc12	12.3	0.1	6.6%	0.1	0.9	?	-4.9
55	CCOc1ccccc1N(CC(=O)Nc1cccnc1)S(=O)(=O)c1ccc(C)cc1	-0.4	5.5	10.4%	-17.9	0.6	7.0%	-31.0
56	O=C(Nc1cc([N+](=O)[O-])ccc1N1CCCC1)c1ccco1	-9.9	-7.0	8.7%	18.6	-3.3	0.4%	-2.9
57	Cc1ccnc(NC(=O)c2ccc(COc3ccc(Cl)cc3)o2)c1	0.3	-1.5	?	8.2	4.8	4.6%	2.8
